FEN1 inhibitor: blocks human flap endonuclease 1; P39748; Recombinant FEN1 flap cleavage, fluorescence, 15 min; Potency, µM (doses to about 114 µM), for the others: top-dose activity change, negative = inhibition, usual class: inhibitors; actives 0.35% (n = 390,000); AID 588795; also: nearly all actives have a fitted effect of over 65% in size
Target sequence (P39748 whole entry, looked up): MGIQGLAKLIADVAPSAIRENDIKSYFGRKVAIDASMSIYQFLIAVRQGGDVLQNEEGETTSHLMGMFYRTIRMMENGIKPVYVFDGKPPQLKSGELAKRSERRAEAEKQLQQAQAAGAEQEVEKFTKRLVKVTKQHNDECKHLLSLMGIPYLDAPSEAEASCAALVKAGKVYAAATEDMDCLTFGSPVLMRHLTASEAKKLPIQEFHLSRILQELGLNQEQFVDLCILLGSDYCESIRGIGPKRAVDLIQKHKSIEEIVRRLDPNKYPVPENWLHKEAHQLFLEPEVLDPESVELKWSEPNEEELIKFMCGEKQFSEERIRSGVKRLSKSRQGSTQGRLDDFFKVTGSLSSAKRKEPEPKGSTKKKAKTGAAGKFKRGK
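FEN1 at 10 nM, compound pretreatment for 15 min (room temperature), 50 nM final substrate to initiate; endpoint reads at 0 and 15 min; DMSO-only plates used as vehicle background.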
GCN5L2 inh: inhibitors of human GCN5L2 histone acetyltransferase. GCN5L2 HAT assay, ThioGlo1 CoA-SH fluorescence. Potency, µM (series often up to 58.9 µM), for the others: top-dose activity change, negative = inhibition, usual class: inhibitors. actives 0.21% (n = 390,000). AID 504327
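Fluorescence readout, Ex340nm/Em540nm: ThioGlo1 (50uM final) reacts with free CoA thiol released as 20nM GCN5L2 acetylates H3(1-25) peptide (75uM) using acetyl-CoA (70uM). Compound and enzyme sat 15 min beforehand; 20 min room-temperature reaction.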
* = called active by the depositor; ? = inconclusive; [ ] = remark or other dose. Calls follow the shape of the dose curve; as a rule, active = well fitted curve in the direction sought with a large enough effect; inconclusive = small, poorly fitted or top-dose-only effect, or another doubt; inactive = no such curve, though single readings can be large; an effect the other way counts as inactive or inconclusive. % is scaled to controls: 0 for no effect and ±100 for the full control effect; potency is read from the fitted curve at half-maximal effect. These rows are one share of the data, and most or all hits are left out here.

SMILES	FEN1 inhibitor	GCN5L2 inh
O=C(CSc1n[nH]c(-c2ccc(Br)cc2)n1)N1CCOCC1	0%	-3%
NC(=O)C1(N2CCCCC2)CCN(C(=O)Nc2ccc(F)cc2)CC1	5%	-9%
O=[N+]([O-])c1cc(C(F)(F)F)ccc1-n1nnc2ccccc21	-1%	-2%
CCc1ccc2c(c1)NC(c1ccc(F)cc1)=NC(c1ccncc1)=N2	-17%	-6%
Cc1ccc(S(=O)(=O)NC(=O)NCc2ccccn2)cc1	0%	3%
OC(CCCN1CCC(O)(c2ccc(Cl)cc2)CC1)c1ccc(F)cc1 (configuration not stated)	22%	1%
COC(=O)c1ccc(N)nc1	16%	-11%
COc1cc2c(cc1OC)CN(C(=O)/C=C/c1ccccc1[N+](=O)[O-])CC2	-1%	-3%
COc1cccc(/C=N/NC(=O)c2c(-c3ccccc3)noc2C)c1	13%	-10%
COCCn1nnnc1C(C(C)C)N1CCN(C(=O)c2ccco2)CC1 (configuration not stated)	-8%	1%
COCCNC(=O)C(=O)N/N=C(\C)CC(=O)Nc1ccc(Cl)cc1Cl	13%	-10%
CN1CCN(C(=O)/C=C\C(=O)O)CC1	-3%	0%
O=C(CCc1ccccc1)Nc1ccc(NC(=O)C2CC2)nc1	-5%	-19%
CCOC(=O)c1ccccc1NC(=O)c1cncc(Br)c1	-3%	3%
CC(=O)c1csc(CS(=O)(=O)c2ccccn2)n1	-15%	3%
Clc1cc(Cl)c(Cl)cc1Cl	-10%	-3%
SC(COCc1ccccc1)CN1CCN(Cc2ccc3c(c2)OCO3)CC1 (configuration not stated)	-17%	-14%
O=C(CCn1cnc2ccccc2c1=O)Nc1nc2c(s1)CCCC2	16%	-1%
CC1(c2ccco2)NC(=O)NC1=O (configuration not stated)	1%	-5%
CCn1cc(CNC(=O)c2ccc3nc(Cc4ccc(OC)cc4)oc3c2)cn1	-2%	3%
Cc1ccc(S(=O)(=O)N(C)c2c(C)ccc(S(N)(=O)=O)c2C)cc1	1%	10%
N#C/C(N)=C(/C#N)N=Cc1cccc(Cl)c1	-6%	-25%
CN(CC(=O)NC(=O)Nc1ccccc1F)Cc1ccccc1F	4%	-2%
Cc1nnc(SCC(=O)N2CC(=O)Nc3ccccc32)n1-c1ccccc1	1%	-2%
CC(C)N1C(=O)S/C(=C/c2ccc3c(c2)n(C)c(=O)n3C)C1=O	-8%	-13%
COc1cccc(NC(=O)c2cnc(SC)nc2)c1	-3%	1%
O=C1CCC(C(=O)Nc2cccc(Br)c2)N1 (configuration not stated)	2%	0%
O=C(c1ccc(-n2cncn2)c([N+](=O)[O-])c1)N1CCN(c2cccc(Cl)c2)CC1	-9%	-4%
CCN(CC)C(=O)N1CCN(S(=O)(=O)c2ccccc2)CC1	17%	-3%
Cc1ccc(NC(=O)COC(=O)CNC(=O)c2ccc(Br)cc2)c(C)c1	11%	2%
COc1ccc(-c2cc(C(=O)Nc3c(C)n(C)n(-c4ccccc4)c3=O)c3ccccc3n2)c(OC)c1	-3%	-20%
NC(=O)C1CCN(C(=O)c2cc(-c3ccc(Cl)s3)nc3ccccc23)CC1	1%	-9%
O=C(O)C1CCN(C(=O)c2ccc3c(c2)OCO3)CC1	3%	1%
CC(C)CNC(=O)[C@H](Cc1ccccc1)NC(=O)c1ccco1	-7%	-8%
O=S(=O)(NCc1ccccc1)c1ccc2c(c1)OCCO2	11%	-18%
COc1ccc(OC)c(NC(=O)CSc2nncc3ccc(OC)c(OC)c23)c1	7%	-8%
O=C(Nc1ccccc1)c1cccc(S(=O)(=O)Nc2ccccn2)c1	5%	-4%
Cc1ccc(S(=O)(=O)NCCN2CCOCC2)s1	-1%	-6%
COc1ccc(C2(C(=O)NCC3CCCO3)CCOCC2)cc1 (configuration not stated)	-12%	-2%
N/C(=N\N=C\c1ccc2c(c1)OCO2)c1nonc1N	7%	1%
Cc1ccc(C(=O)Nc2ccc(CN3CCS(=O)(=O)CC3)cc2)cc1C	-9%	-5%
O=C1C2C3C=CC(C3)C2C(=O)N1c1ccc(N2CCN(c3ccccn3)CC2)c([N+](=O)[O-])c1 (configuration not stated)	12%	-9%
O=C1c2ccccc2C(Nc2ccc(F)cc2F)N1CCN1CCOCC1 (configuration not stated)	-2%	9%
COCCCNC(=O)C(=O)NCC(c1ccco1)N1CCN(c2ccc(OC)cc2)CC1 (configuration not stated)	43%[activator]	-4%
CCc1ccc(C(=O)Nc2cccnc2Oc2ccc(Cl)cc2)cc1	-15%	-6%
CCOC(=O)c1ccc(NC(=O)CN2CCN(C(=O)C3CCCO3)CC2)cc1 (configuration not stated)	12%	-12%
COc1ccc(/C=C(/NC(=O)c2ccccc2)C(=O)N2CCCC2)cc1	4%	0%
CC(=O)N1CC(C)Oc2ccc(S(=O)(=O)NC(CC(=O)O)c3cc(C)ccc3C)cc21 (configuration not stated)	19%	-6%
CCOCC(=O)OCC(=O)NC12CC3CC(CC(C3)C1)C2	5%	1%
COc1ccc(/C(O)=C2/C(=O)C(=O)N(CC3CCCO3)C2c2cccc(OC)c2)cc1 (configuration not stated)	6%	-4%

Next results:
SMILES	FEN1 inhibitor	GCN5L2 inh
O=C(NNC(=O)C1CCCCC1)c1ccc(Br)cc1	-3%	28%
Cc1cc(OC(=O)c2c(Cl)cccc2Cl)nc(C)n1	?	1%
C=CCNC(=O)c1c(Cl)nc(C)c([N+](=O)[O-])c1C	0%	3%
CS(=O)(=O)n1nc(OC(=O)c2cc(Br)ccc2Cl)cc1N	-5%	18%
Cc1ccc2cc3c(NS(=O)(=O)c4cccc5nonc45)nn(CC(C)C)c3nc2c1	-4%	-17%
Cc1ccccc1OCCOC(=O)c1cc(S(=O)(=O)N2CCCCC2)ccc1N1CCOCC1	7%	-12%
COc1cccc(C(=O)NCC(=O)n2nc(C)cc2C)c1	10%	-2%
COC(=O)c1nc2ccccc2s1	1%	-2%
COC(=O)[C@]1(Cc2ccccc2)N[C@H](c2ccc(-c3ccc4c(c3)OCO4)cc2)[C@@H]2C(=O)N(C)C(=O)[C@@H]21	-2%	-7%
O=C(c1ccc2c(=O)n(CC3CCCO3)c(=S)[nH]c2c1)N1CCN(c2ccccc2)CC1 (configuration not stated)	-10%	-4%
COc1ccc(S(=O)(=O)N2CCN(C(=O)CNC(=O)c3ccc4c(c3)OCO4)CC2)cc1	6%	-6%
CC(=O)c1ccc(S(=O)(=O)N2CCN(C(=O)CSC(=S)N3CCCC3)CC2)cc1	1%	-6%
CN(CC(=O)OCC(=O)NCc1ccccc1)S(=O)(=O)c1ccc(Cl)cc1	-6%	-5%
Cc1c(-c2nsc(NC(=O)c3ccccc3)n2)nnn1-c1ccc(C(F)(F)F)c(Cl)c1	0%	-6%
Cc1cccc(C(=O)NCC(=O)NC2CCC(C)CC2)c1 (configuration not stated)	11%	-5%
O=C(NCc1cccnc1)c1cccn2c(=O)c3sccc3nc12	-25%	-5%
Cn1c(=O)c2c(nc(CN3CCN(c4ccccc4F)CC3)n2CCN2CCOCC2)n(C)c1=O	3%	0%
Cc1cc(C)n(C(=O)COc2c(C)cccc2C)n1	-1%	0%
O=C(CCN1C(=O)NC2(CCCC2)C1=O)Nc1ccc(-c2nc3ccccc3s2)cc1	9%	-5%
CC1=C(CC(=O)O)c2cc(F)ccc2/C1=C/c1ccc(S(C)=O)cc1 (configuration not stated)	-12%	0%

Ordered by SMILES length (low to high): 3 of the compounds above
SMILES	FEN1 inhibitor	GCN5L2 inh
CC1=C(CC(=O)O)c2cc(F)ccc2/C1=C/c1ccc(S(C)=O)cc1 (configuration not stated)	-12%	0%
CN(CC(=O)OCC(=O)NCc1ccccc1)S(=O)(=O)c1ccc(Cl)cc1	-6%	-5%
Cc1c(-c2nsc(NC(=O)c3ccccc3)n2)nnn1-c1ccc(C(F)(F)F)c(Cl)c1	0%	-6%

Further results
SMILES	FEN1 inhibitor	GCN5L2 inh
CCOC(=O)c1cnc(-c2cccc(OC)c2)[nH]c1=O	-9%	2%
NS(=O)(=O)c1ccc(CCNC(=O)[C@@H]2CCCN2S(=O)(=O)c2ccccc2F)cc1	-4%	-3%
Cc1c(NC(=S)Nc2ccccc2C(F)(F)F)cccc1[N+](=O)[O-]	0%	-10%
O=C(c1cc(Cl)ccc1O)N1CCN(S(=O)(=O)c2cccs2)CC1	1%	-24%
O=C1C(=O)N(CC(=O)N2CCCC2)c2ccccc21	-1%	-5%
COc1ccc(NC(=O)c2ccco2)cc1S(=O)(=O)N1CCCCC1	2%	-5%
NC(=O)C(Cc1ccccc1)N1C(=O)c2ccccc2C1=O (configuration not stated)	7%	-7%
O=C(O)CCC(NC(=O)c1ccc(Cl)cc1)C(=O)O (configuration not stated)	5%	-1%
CCOC(=O)c1sc(NC(=O)CSc2nc(C)cc(C)c2C#N)c(C#N)c1C	-1%	-1%
O=C(Cn1c(CO)nc2ccccc21)Nc1ccccc1Cl	-6%	-1%
CC(=O)c1ccc(NS(=O)(=O)c2ccccc2)cc1	-9%	-3%
CC(C)Sc1nc2c(c(=O)[nH]c(=O)n2C)n1Cc1ccccc1	4%	-3%
N#CCCC12CCCCC1=Nc1ccccc12 (configuration not stated)	-1%	-1%
COC(=O)c1noc(-c2ccc(C)cc2)n1	0%	-3%[0.501 µM]
COc1ccc(NC(=O)CSc2nnc(COc3ccccc3)n2Cc2ccco2)cc1OC	-1%	-6%
COc1ccc(NC(=O)NCc2cccn2Cc2ccc(F)cc2)cc1OC	12%	1%
O=C(NCc1cccnc1)c1ccccc1-c1nc(-c2ccccc2)no1	0%	-4%
COC(=O)C(Cc1ccccc1)NC(=O)CNC(=O)c1ccccc1OC (configuration not stated)	1%	-5%
Cn1c(=O)c2c(SCC(=O)c3ccccc3)nc(C3CC3)nc2n(C)c1=O	-6%	-1%
S=C(NCc1ccccc1)NC1CCCCC1	16%	2%
CCN1C(=O)C(CC(=O)Nc2ccccc2)N(Cc2ccccn2)C1=S (configuration not stated)	48%[activator]	-8%
CN1CCN(CC(=O)N2CCn3c4c(c5cc(C6CCCCC6)ccc53)CCCC42)CC1 (configuration not stated)	-11%	-3%
CCOC(=O)c1ccc(-n2c(C)nc3ccccc3c2=O)cc1	4%	-1%
CCNC(=O)/C(=C/c1cccc([N+](=O)[O-])c1)NC(=O)c1ccc(C)cc1	-4%	10%
Cc1ccc(OC(=O)c2cc(=O)c3ccccc3o2)cc1	1%	-2%
CCOC(=O)C(=O)N(CC)C1CCS(=O)(=O)C1 (configuration not stated)	0%	7%
O=C(N/C=C\c1ccccc1)NCc1ccc(Cl)cc1Cl	6%	-19%
COc1ccccc1CC(=O)Nc1ccc2nc(C)sc2c1	0%	0%
Cc1ccc(C(=O)NCc2ccco2)cc1[N+](=O)[O-]	-1%	-15%
Cc1ccc2c(ccc(=S)n2C)c1	0%	-3%
O=C(NCC1CCCO1)c1cccc(-n2cnnn2)c1 (configuration not stated)	-2%	-6%
COc1ccc(NC(=O)c2ccc(-n3cncn3)c([N+](=O)[O-])c2)cc1	0%	-3%
Cc1ccc(C)c(OCC(=O)Nc2cccc(S(=O)(=O)NC3=NCCCCC3)c2)c1	-6%	-22%
COc1ccccc1N(CC(=O)NCCSC(C)(C)C)S(C)(=O)=O	2%	-8%
COc1ccccc1NS(=O)(=O)c1ccc(NC(=O)N2CCCCC2)cc1	3%	-10%
CCOC(=O)N1CCN(Cc2nc(-c3ccc(Cl)cc3)no2)CC1	6%	-5%
Cc1nc(C(C)N(C)Cc2nc(Cc3ccccc3F)no2)c(C)s1 (configuration not stated)	1%	3%
CC(=O)Nc1ccc(S(=O)(=O)N(C)CC(=O)OC(C)C(=O)N(C)C2CCCCC2)cc1 (configuration not stated)	5%	1%
CC(C)N(C(=O)CSc1nnc(Cc2csc(Nc3ccccc3)n2)o1)C(C)C	11%	-8%
COc1ccc(/C=C/C(=O)O)cc1S(=O)(=O)NCC1CCCO1 (configuration not stated)	-10%	0%
Cc1ccc(OCc2nnc(SCC(=O)N3CCOCC3)n2C)cc1	-3%	0%
Oc1cccc(C(=S)N2CCC(Cc3ccccc3)CC2)c1	5%	-12%
Cc1ccccc1NC(=S)N1CCCCCC1	-20%	-2%
CCOc1nc2cnccc2n(CC(=O)Nc2ccccc2C(=O)OC)c1=O	20%	-2%
COCCCNCCOc1ccc(C(C)(C)c2ccccc2)cc1	-3%	2%

Seven of the compounds above, with the structure last.
FEN1 inhibitor	GCN5L2 inh	compound
-9%	-3%	CC(=O)c1ccc(NS(=O)(=O)c2ccccc2)cc1
-9%	-4%	O=C(c1ccc(-n2cncn2)c([N+](=O)[O-])c1)N1CCN(c2cccc(Cl)c2)CC1
5%	-1%	O=C(O)CCC(NC(=O)c1ccc(Cl)cc1)C(=O)O (configuration not stated)
-5%	18%	CS(=O)(=O)n1nc(OC(=O)c2cc(Br)ccc2Cl)cc1N
7%	1%	N/C(=N\N=C\c1ccc2c(c1)OCO2)c1nonc1N
-3%	2%	COCCCNCCOc1ccc(C(C)(C)c2ccccc2)cc1
-1%	-15%	Cc1ccc(C(=O)NCc2ccco2)cc1[N+](=O)[O-]

Assay outcomes (PubChem)
